A647 autofl – qHTS Assay for Spectroscopic Profiling in A647 Spectral Region; Compound fluorescence, A647 channel (570/671 nm), Tris buffer; max dye-equivalent concentration, M; 59,000 tested, under 10 active; AID 592, 2007; active means above 1 µM dye equivalent; inconclusive means 0.1 to 1 µM; inactive means 0.1 µM or less;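 note: values scaled relative to a standard on each plate; highest value over a series up to 38 µM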
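Each compound's intrinsic fluorescence at 570 nm excitation and 671 nm emission is measured across its concentration series in 100 mM Tris, pH 8.0, after 15 min at room temperature, and reported relative to an A647 curve.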
A488 fluor – qHTS Assay for Spectroscopic Profiling in A488 Spectral Region; max dye equivalency, M; compound autofluorescence, A488 spectral region, dye equivalency; stronger effect = higher value; actives 0.1% (n = 59,000); active = above 10 nM dye equivalent; inconclusive = 1 to 10 nM; inactive = 1 nM or less; about half of its hits are not listed in these tables;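 note: highest value over a series up to 38 µM; compound alone in buffer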
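Autofluorescence read at ex 480/em 540 nm after 15 min RT in 100 mM Tris pH 8.0; compound signal normalized to A488 standard series on each plate, reported as dye-equivalent concentration at each test concentration.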
Resorufin fluor – qHTS Assay for Spectroscopic Profiling in Resorufin Spectral Region | AID 588, 2007 | max dye-equivalent concentration, M | actives 0.04% (n = 59,000) | Compound fluorescence, resorufin region 547/598 nm, buffer; stronger effect = higher value; active = above 10 nM dye equivalent; inconclusive = 1 to 10 nM; inactive = 1 nM or less; a few of its hits are not listed in these tables; note: highest value over a series up to 38 µM
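Tris 100 mM pH 8.0; compound added, 15 min RT; CCD imager read, ex 547 nm/em 598 nm; signal normalized to resorufin standard curve (six concentrations per plate) as dye-equivalent concentration.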
AID923 – qHTS Assay for Allosteric/Competitive Inhibitors of Caspase-1: Spectroscopic Profiling in AFC Spectral Region | compound fluorescence, AFC spectral region (405/520 nm); almost no hit is shown here | Potency, µM (titrated, usually from 57.5 µM), inactives show top-dose fluorescence increase, actives largely listed as activators | actives 1.1% (n = 75,000) | AID 923, 2007; active = well fitted activation curve with a large enough effect; inconclusive = small, poorly fitted or top-dose-only effect;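 note: potency is the fitted concentration of half-maximal effect; 0% is about no effect; scaled to a free AFC standard on each plate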
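Titrations up to 57 uM read every 20 sec for 3 min (405/520 nm) with 50 nM caspase 1 and 5 uM Ac-WEHD-AFC, pH 7.5 HEPES buffer. Fluorescence-vs-time intercept gave baseline, scaled against on-plate AFC standard.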
TSHR agonist – qHTS Assay for Agonists of the Thyroid Stimulating Hormone Receptor; Thyrotropin receptor (Homo sapiens), P16473; HEK293-CNG-TSHR cells (CNG channel as cAMP sensor), membrane potential dye, cAMP; actives 0.48% (n = 73,000); Potency, µM (doses to about 57.1 µM), for the others: top-dose activation, most hits filed as activators; active = well fitted activation curve of enough size with the parental cells flat; inconclusive = any curve in the parental cells; inactive = parental cells flat and receptor cells flat or falling; note: potency is the fitted concentration of half-maximal effect; % of control where 0% means no effect; weak receptor curves with flat parental cells got no call and are not listed
Target sequence (P16473 whole entry, looked up): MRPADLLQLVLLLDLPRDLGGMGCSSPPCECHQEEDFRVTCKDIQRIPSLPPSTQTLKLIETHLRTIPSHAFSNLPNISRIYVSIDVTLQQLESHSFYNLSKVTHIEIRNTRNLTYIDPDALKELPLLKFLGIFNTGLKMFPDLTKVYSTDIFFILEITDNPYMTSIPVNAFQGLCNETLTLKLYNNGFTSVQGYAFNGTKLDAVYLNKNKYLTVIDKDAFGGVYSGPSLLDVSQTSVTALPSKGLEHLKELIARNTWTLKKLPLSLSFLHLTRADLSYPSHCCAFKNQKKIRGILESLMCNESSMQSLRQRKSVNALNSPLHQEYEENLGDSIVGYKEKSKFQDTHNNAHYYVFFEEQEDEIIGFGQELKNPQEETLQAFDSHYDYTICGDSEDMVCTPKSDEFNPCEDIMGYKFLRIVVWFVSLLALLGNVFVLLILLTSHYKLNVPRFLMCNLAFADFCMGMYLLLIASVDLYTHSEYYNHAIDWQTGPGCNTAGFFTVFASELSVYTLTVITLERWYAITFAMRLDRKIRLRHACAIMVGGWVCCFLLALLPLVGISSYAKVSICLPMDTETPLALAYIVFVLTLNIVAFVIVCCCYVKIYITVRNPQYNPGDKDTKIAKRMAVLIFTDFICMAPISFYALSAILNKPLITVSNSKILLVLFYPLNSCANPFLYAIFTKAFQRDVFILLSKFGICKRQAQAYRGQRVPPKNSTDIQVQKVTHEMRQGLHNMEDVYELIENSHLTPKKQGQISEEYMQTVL
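HEK 293 cells stably expressing TSHR and a modified CNG channel, with CNG-only parental cells as counterscreen, were preloaded 60 min at room temperature with membrane potential dye containing 100 uM RO 20-1724. Compound exposure was 30 min, and depolarization was read as fluorescence at 590 nm.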
Numbers without * were called inactive; i = inactive; u = inconclusive; x = not tested or not shown; & = joins results of further samples; [ ] = remark or other dose. Some of the compounds tested; the hit share may differ from the screen's.

mol | Resorufin fluor | A647 autofl | AID923 | TSHR agonist | A488 fluor
Oc1ccc2c3c1O[C@H]1c4[nH]c5c(c4C[C@@]4(O)[C@@H](C2)N(CC2CC2)CC[C@]314)C[C@]1(O)[C@H]2Cc3ccc(O)c4c3[C@@]1(CCN2CC1CC1)[C@@H]5O4 | x | x | 0.8% | 0% | x
CC1(C)CN=C(Nc2ccccc2C(F)(F)F)S1 | i | 2.7e-08 | -0.7% | 28% | i
CCOC(=O)c1cc(C)n(CCc2cnc[nH]2)c1C | i | 1e-09 | x | x | i
CN1CCCC2(CCN(C(=O)c3ccncc3)CC2)C1 | i | 2.4e-08 | 2.6% | u | i
CCCSC(=O)Cl | x | x | -2.0% | 2% | x
O=C1C(Cl)=C(N2CCCCCC2)C(=O)N1c1ccccc1 | x | x | 1.8% | u | x
CC1(C)CC(=O)C(C=NCCN2CCN(C(=O)Cc3ccccc3)CC2)=C(O)C1 | x | x | 4.5% | -1% | x
CN1C(=O)N(C)C(=O)C(CCc2ccccn2)(CCc2ccccn2)C1=O | i | 2.8e-08 | -2.1% | -4% | i
CCCCCCCCCCCC[N+](C)(C)CCOc1ccccc1 | x | x | -4.7% | 23% | x
Cc1nc2n(c(=O)c1CCN1CCC(c3noc4cc(F)ccc34)CC1)CCCC2 | i | 3.5e-08&1e-09 | 0.6%[25.7 µM] | 7% | i
C=C[C@@H]1CN2CC[C@H]1C[C@H]2[C@H](O)c1ccnc2ccccc12 | i | 4.9e-08 | -0.5%[11.5 µM] | 4%[11.4 µM] | i
CN1CCCC2(CCN(C(=O)Oc3ccccc3)CC2)C1 | i | 2.5e-09 | 1.4% | u | i
CCCCn1c(C)c(C(=O)OCC)c2c(CN3CCOCC3)c(O)ccc21 | x | x | 0.3% | u | x
O=c1[nH]c(=O)n(Cc2ccco2)c(O)c1C=NCc1cccs1 | i | 3.5e-08 | 1.7% | 1% | i
CC(C)Cc1[nH]c(=O)c(C#N)c2c1CCC2 | i | 1e-09 | x | x | i
CP(=O)(O)C1=CCNCC1 | i | 9.1e-09 | -4.0% | x | i
CCN1c2nc3ccccn3c(=O)c2CC2(C(=O)N(C)C(=O)N(C)C2=O)C1C (centres undefined) | i | 3.3e-08 | -0.4% | 11% | i
Cc1cccc(N2C(=O)NC(=O)C3(Cc4cc(C)ccc4N(C)C3)C2=O)c1 (centres undefined) | i | 1e-09 | 2.0% | 12% | i
CCCCn1c(O)c(C=NCCCN(CC)CC)c(=O)[nH]c1=O | i | 4.1e-09 | 0.3% | 26% | i
N=Cc1c(O)n(-c2cccc(Cl)c2)c(=O)[nH]c1=O | i | 5.5e-09 | -2.2% | 4% | i
CN(C)C(=O)Oc1ccc(C(=O)c2ccccc2)cc1 | x | x | 3.2% | 0%[11.4 µM] | x
C[Se]C[C@@H](N)C(=O)O | i | 5.8e-08 | -2.1% | x | i
CC1(C)NCCN2C(=O)CSC21 (centres undefined) | i | 1e-09 | x | x | i
Oc1cc2c(cc1CN1CCN(c3ccccc3)CC1)CCC2 | i | 3.6e-08 | -0.2% | u | i
Oc1c(Cl)c(Cl)c(Cl)c(Cl)c1Cl (tested in a mixture with another compound) | i | 2.7e-08&2.4e-08&5.6e-08&5.7e-08 | -3.9%&-4.9%&-3.8%&5.1%[11.5 µM] | u | i
COc1ccc(NC(=O)CN2C3CCC2CC(O)(c2cccnc2)C3)cc1OC (centres undefined) | i | 1e-09 | 0.0% | 1% | i
CCn1c(=O)n(CC(=O)N2CCC3(CC2)OCCO3)c(=O)c2ccccc21 | i | 1e-09 | -1.2% | 3%[11.4 µM] | i
CCCn1nc2ccccc2c1P(=O)(N1CCOCC1)N1CCOCC1 | i | 1e-09 | -0.5% | u | i
O[C@H](CN1CC1)[C@@H](O)CN1CC1 | i | 1e-09 | 0.2%[11.5 µM] | 2%[11.4 µM] | i
Nc1ccc(CCN2CCN(c3cccc(C(F)(F)F)c3)CC2)cc1 | i | 1.3e-08 | -1.5% | u | i
O=C1CC(C(=O)N2CCC3(CC2)OCCO3)CN1CCc1ccccc1 (centres undefined) | i | 3.8e-08 | -0.3% | 2%[11.4 µM] | i
Nc1ncnc2c1ncn2[C@@H]1O[C@@H](COP(=O)(O)CP(=O)(O)OP(=O)(O)O)[C@H](O)[C@@H]1O | i | 4.1e-08 | -2.2% | u | i
CCCCCCn1c(O)c(C=NC2CCCCC2N)c(=O)[nH]c1=O (centres undefined) | i | 6.4e-09 | 1.1% | x | i
Nc1ccc(Cc2ccc(N)cc2)cc1 | x | x | 0.2% | u | x
Cc1nc2ccccc2n1C1CCN(Cc2nnnn2CCc2ccccc2)CC1 | i | 1.8e-08 | -1.6% | u | i
O=c1c2ccccc2nc(CN2CCOCC2)n1-c1ccccc1F | i | 2e-08 | -0.3% | 9% | i

Taken from the entries so far (3 entries):
mol | Resorufin fluor | A647 autofl | AID923 | TSHR agonist | A488 fluor
CCCn1nc2ccccc2c1P(=O)(N1CCOCC1)N1CCOCC1 | i | 1e-09 | -0.5% | u | i
O[C@H](CN1CC1)[C@@H](O)CN1CC1 | i | 1e-09 | 0.2%[11.5 µM] | 2%[11.4 µM] | i
Nc1ccc(CCN2CCN(c3cccc(C(F)(F)F)c3)CC2)cc1 | i | 1.3e-08 | -1.5% | u | i

Next compounds
mol | Resorufin fluor | A647 autofl | AID923 | TSHR agonist | A488 fluor
CSc1ccc(C(=O)C(C)(C)N2CCOCC2)cc1 | i | 5.1e-08 | 2.0% | u | i
O=C(C1c2ccccc2C(=O)N2CCc3ccccc3C12)N1CCC2(CC1)OCCO2 (centres undefined) | i | 4.6e-09 | 0.3% | 6% | i
COC(=O)NC(=S)Nc1ccccc1NC(=S)NC(=O)OC | x | x | -0.8% | 5% | x
COc1cc(Cn2c(=O)oc3ccc(C)cc32)ccc1OC(C)C | i | 7.2e-09 | -1.4% | u | i
Cc1ncc([N+](=O)[O-])n1CCN=[N+]=[N-] | i | 1.9e-08 | -2.3%[11.5 µM] | 26%[11.4 µM] | i
Clc1ccc(C2=CCC[C@H]3CC[C@@H]2N3)cn1 | x | x | -2.3% | 1% | x
CC(C)NS(=O)(=O)c1ccc(OCC(=O)N2CCN(Cc3ccccc3)CC2)c(Cl)c1 | i | 1e-09 | 2.6% | -17% | i
CC[C@@H](CO)Nc1nc(NCc2ccccc2)c2ncn(C(C)C)c2n1 | i | 1e-09 | -2.6% | u | i
O=C(Cn1ncc2c3ccccc3n(Cc3cccc(Cl)c3)c2c1=O)N1CCC2(CC1)OCCO2 | i | 1e-09 | 7.1% | -14% | u
CN(C)[C@@H]1C(=O)C(C(N)=O)=C(O)[C@@]2(O)C(=O)C3=C(O)c4c(O)ccc(Cl)c4[C@@](C)(O)C3C[C@@H]12 (some centres undefined) | i | 1.2e-08 | x | x | i
c1ccc2c(CCNC3=NCCC3)c[nH]c2c1 | i | 3.6e-08 | -1.4% | -3% | i
CC(C)N1CC=C(c2c[nH]c3ccccc23)CC1 | x | x | 5.9% | -1% | x
O=C(Cn1cc(C(=O)c2ccccc2F)c2ccccc21)NCc1ccco1 | i | 2.7e-08 | 0.3% | 16% | i
c1cncc([C@H]2CCCCN2)c1 | i | 1e-09 | -0.7% | -3% | i
CCOC(=O)C1=C(N)OC(C)=C(C(=O)OCCOC)C12C(=O)Nc1ccccc12 (centres undefined) | i | 9.2e-09 | 0.5% | 1% | i
O=c1c2ccccc2[se]n1-c1ccccc1 | i | 6.3e-09&3.6e-08&1e-09 | -0.1% | -14%[25.6 µM] | i
C=CCn1c(O)c(C(C)=Nc2ccc(N(CC)CC)cc2)c(=O)[nH]c1=O | i | 3.6e-08 | 0.3% | x | i
C=CCN1CCC2(C)c3cc(O)ccc3C[C@H]1[C@H]2C | i | 7.6e-09&1.3e-09 | -0.3%&0.1%&-2.4% | 12% | i
C[N+]1([O-])[C@@H]2CC[C@H]1CC(OC(=O)[C@@H](CO)c1ccccc1)C2 (some centres undefined) | i | 5.4e-09 | -0.3%[25.7 µM] | -2%[25.6 µM] | i
O=C(NC1(C(F)(F)F)Oc2ccc(Cl)cc2O1)N1CCC2(CC1)OCCO2 (centres undefined) | i | 1e-09 | 0.3% | -7% | i
CC1(C)CSC(Nc2ccc(F)c(Cl)c2)=N1 | i | 4.3e-08 | -0.7% | 7% | i
COc1ccc(S(=O)(=O)NC(CC(=O)N2CCC3(CC2)OCCO3)c2ccco2)cc1 (centres undefined) | i | 3.6e-08 | -0.6% | -1% | i
CC(Cl)(Cl)Cl | x | x | -2.0% | u | x
CSC1=NP(=S)(SC)N2CCCC2=C1C#N (centres undefined) | i | 3.8e-08 | 1.5% | -14% | i
O=C(c1csc2c1CCCCC2)N1CCC2(CC1)OCCO2 | i | 3e-08 | 0.1% | 0%[11.4 µM] | i
CC(C)(C)OOC(C)(C)C | x | x | -5.0% | u | x
O=C(CCCn1c(=O)[nH]c2cc(Cl)ccc2c1=O)N1CCC2(CC1)OCCO2 | i | 1e-09 | -0.2% | 2%[11.4 µM] | i
CC(=NCCCN1CCCCC1)c1c(O)n(Cc2ccccc2)c(=O)[nH]c1=O | i | 1.7e-08 | 2.6% | 10% | i
CN1CSC(=S)N(C)C1 | x | x | 0.8%&-0.1% | -2%&4% | x
CN(CCC(=O)O)C1=Nc2ccc(Cl)cc2C(c2ccccc2)=[N+]([O-])C1 | i | 5.4e-08 | -1.7%[11.5 µM] | 0%[11.4 µM] | i
NC[C@H](O)c1cc(O)c(O)cc1F | i | 2.2e-09 | 1.1% | -6% | i
Cc1cc(Cl)ccc1O | x | x | 2.6% | -9% | x
ClC(Cl)(Cl)Cl | x | x | -0.1%&0.6% | u | x
CC12CN3C(O)C(C)(C1)CC(C)(C2)C3O (centres undefined) | i | 1.9e-09 | -0.9% | -2% | i
Cc1nc2cc(C(=O)N3CCC4(CC3)OCCO4)ccc2n1-c1ccc(Br)cc1 | i | 3.2e-08 | -0.9% | -1%[11.4 µM] | i
CCOC(=O)C1=C(c2ccccc2)OC(N)=C(C#N)C1C(C)C (centres undefined) | i | 1e-09 | -0.3% | u | i
CC(C)NC[C@H](O)COc1cccc2[nH]ccc12 | x | x | -2.0% | 5% | x
Fc1cccc(F)c1CN1CCN(Cc2c(F)cccc2F)CC1 | i | 1e-09 | -0.6% | -1% | i
COc1ccccc1N1CCN(Cc2c(F)cccc2Cl)CC1 | x | x | -0.1% | -1%[11.4 µM] | x
NC(N)=NCCCCCCCCCCN=C(N)N | x | x | -0.4% | -1% | x
O=C(CN1C(=O)CCSc2ccccc21)N1CCC2(CC1)OCCO2 | i | 1.6e-09 | -0.8% | -4%[11.4 µM] | i
O=C(Nc1ccccc1OC(=O)N1CCCCC1)N1CCCCC1 | x | x | 0.4% | u | x
O=C(Cn1cnc2sc3c(c2c1=O)CCCC3)NCCC(=O)N1CCC2(CC1)OCCO2 | i | 9.2e-09 | 0.6% | 2% | i
CCOP(=O)(C#CC(C)(C)C)C1(O)CCCCC1 (centres undefined) | i | 2.7e-08 | -0.6% | -3% | i
O=C1OCCC1NC1=NCCC1 (centres undefined) | i | 2.6e-09 | -0.6% | 4% | i
O=C1CCO1 | x | x | 2.5% | u | x
CN(CC1COc2ccccc2O1)c1nc(-c2cccnc2)nc2ccccc12 (centres undefined) | i | 2.6e-08 | 0.6% | u | i
CCCCn1c(O)c(C(C)=NCCCN(C)C)c(=O)[nH]c1=O | i | 4.3e-09 | -2.1% | 0% | i
